# Sfp inh: Sfp phosphopantetheinyl transferase inhibition. Potency, µM, for the others: max response, negative = inhibition, actives largely listed as inhibitors. Biochemical Sfp PPTase activity, qHTS. Q9F4F7. 310,000 compounds, 3.5% hits; active = well fitted inhibition curve with a large enough effect; inconclusive = small, poorly fitted or top-dose-only effect, or another doubt; inactive = no such curve, though single readings can be large or run the other way;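 note: the enzyme is Sfp with the accession as filed and its product quenches rhodamine fluorescence; potency is the fitted concentration of half-maximal effect; 0% = enzyme reaction without inhibitor and -100% = no enzyme wells; top concentration of the series not given in the record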
#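 Reaction rates are the 30-min fluorescence difference (ex 525, em 598 nm) in wells containing 15 nM Sfp, 5 uM rhodamine-CoA and 12.5 uM BHQ-2-YbbR at pH 7.6 with 10 mM MgCl2.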
# TRPML1 inh: human mucolipin-1 channel inhibition | Q9GZU1 | TRPML1-inducible cells, Ca2+ dye fluorescence, FDSS; stronger effect = lower value; inhibition of EC80 agonist-evoked calcium signal | activity change, negative = inhibition, % (test concentration not listed) | 390,000 compounds, 0.02% hits; in the data active means activity change below about -50%; inconclusive means about -30% to -50%; inactive means above about -30%;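 note: stimulus is agonist 54-4 at its EC80 concentration; % is set by controls: 0 for no effect and ±100 for the full control effect; compound concentration not given in the record; the text of the record puts the active cut at -80%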
#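 TRPML1-DL cells, Tet-induced overnight (~16 h, 37 °C) at 1,500 cells/well, were loaded with Ca8 no-wash dye plus quencher for 45-90 min at room temperature. Compounds were pinned during FDSS kinetic reading; agonist 54-4 at EC80 (4 uM final) then added.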
# gsp antagonist: antagonists of gsp mutant (McCune-Albright syndrome). 340,000 compounds, 0.4% hits. Potency, µM (highest dose often 76.9 µM), for inactives: at the top dose activity change, negative = inhibition, hits mostly inhibitors. gsp-mutant cells, cAMP HTRF, 30 min; control for the full effect not named in the record; active = falling curve of any shape with a large fitted effect; inconclusive = falling curve, mostly with a smaller effect; inactive = flat or rising curve; cell line not stated here;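 note: intracellular cAMP measured with PDE inhibitor Ro 20-1724 present during compound exposure; potency is the fitted concentration of half-maximal effect; % is set by controls: 0 for no effect and ±100 for the full control effect; nearly all actives have a fitted effect of over 65% in size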
#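 HTRF cAMP read-out (cAMP-d2 plus anti-cAMP antibody-K in lysis buffer, 30 min RT). Before lysis, cells are exposed to compounds with […] for 30 min at 37C in DPBS containing Ca/Mg, BSA and Tween 20.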
# TRPV1 potentiator: potentiators of human vanilloid receptor 1 (TRPV1); Q8NER1; TRPV1-expressing cells, Fluo-8 calcium influx, capsaicin EC20 potentiation; host cell line not named in the record; control for the full effect not named in the record; potentiation, % at 8.33 µM; 320,000 compounds, 0.02% hits; AID 540277; active means potentiation above 80%; inconclusive means 30% to 80%; inactive means below 30%; note: 0% is about no effect
# Target sequence (Q8NER1 whole entry, looked up): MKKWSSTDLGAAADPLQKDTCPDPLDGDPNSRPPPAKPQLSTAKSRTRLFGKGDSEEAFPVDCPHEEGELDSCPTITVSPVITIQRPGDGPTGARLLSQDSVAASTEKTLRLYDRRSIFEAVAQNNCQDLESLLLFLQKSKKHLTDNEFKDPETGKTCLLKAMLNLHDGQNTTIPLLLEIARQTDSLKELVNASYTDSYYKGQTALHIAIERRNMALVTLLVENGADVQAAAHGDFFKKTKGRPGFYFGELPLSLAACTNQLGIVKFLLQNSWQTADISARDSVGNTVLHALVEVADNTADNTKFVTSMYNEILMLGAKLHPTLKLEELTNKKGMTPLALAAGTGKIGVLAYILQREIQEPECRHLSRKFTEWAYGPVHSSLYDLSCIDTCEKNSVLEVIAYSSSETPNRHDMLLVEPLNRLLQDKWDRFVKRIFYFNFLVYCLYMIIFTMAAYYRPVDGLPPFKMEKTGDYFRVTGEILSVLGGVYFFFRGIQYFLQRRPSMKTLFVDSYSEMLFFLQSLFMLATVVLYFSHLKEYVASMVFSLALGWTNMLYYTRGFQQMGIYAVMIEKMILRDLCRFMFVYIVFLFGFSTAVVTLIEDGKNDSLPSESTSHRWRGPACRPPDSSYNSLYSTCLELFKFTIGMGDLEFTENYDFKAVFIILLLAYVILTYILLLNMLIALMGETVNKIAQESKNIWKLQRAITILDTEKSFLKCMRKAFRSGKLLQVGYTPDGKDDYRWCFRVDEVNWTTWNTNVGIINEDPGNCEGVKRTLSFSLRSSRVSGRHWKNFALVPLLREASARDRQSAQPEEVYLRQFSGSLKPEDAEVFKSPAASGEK
#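 Cells expressing TRPV1 were dye-loaded with Fluo-8 and read kinetically: 10 s baseline, 3 min after compound (agonist portion), then 2 min after EC20 capsaicin (allosteric enhancer portion). Calcium-bound dye fluorescence at 480/520 nm.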
# ClpP mod: qHTS Assay for Activators of ClpP; purified B. subtilis ClpP, FRET peptide cleavage, 20 min; Potency, µM (doses to about 57.5 µM), without a hit: at the highest dose activity change, negative = active; 340,000 compounds, 1.9% hits; AID 651965, 2013; active = well fitted falling curve with a large enough effect; inconclusive = small, poorly fitted or top-dose-only effect; inactive = no such curve, though single readings can be large or run the other way; note: potency is the fitted concentration of half-maximal effect; the source files actives as falling curves though it sought activators and does not explain the sign; nearly all actives have a fitted effect of over 65% in size; many hits overshoot -100%
# Target sequence (P80244 whole entry, looked up): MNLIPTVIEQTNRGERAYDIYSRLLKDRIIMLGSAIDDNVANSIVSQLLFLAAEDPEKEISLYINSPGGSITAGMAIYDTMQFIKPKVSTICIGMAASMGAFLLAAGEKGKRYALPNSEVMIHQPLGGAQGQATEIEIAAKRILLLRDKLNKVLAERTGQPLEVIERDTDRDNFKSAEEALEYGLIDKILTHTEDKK
#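 Purified B. subtilis ClpP, 10 microg/mL final in Tris/HCl pH8 with KCl, BSA, glycerol and Tween-20, cleaved an Abz/nitrotyrosine-quenched decapeptide. Fluorescence (ex 320, em 430) was read at 0 and 20 min at room temperature. Delta was normalized to 5.8 microM ADEP and DMSO/no-enzyme controls.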
# Menin-MLL FL inh: inhibitors of human menin-MLL interaction, wild-type MLL peptide. Fluorescence polarization, fluorescein-MLL peptide displacement from menin. FP activity change, % at 61.4 µM. 290,000 tested, under 10 active. AID 1766; inconclusive = falling polarisation curve, or a change in total fluorescence; inactive = total fluorescence flat and polarisation flat or rising; no compound was filed as active; the % refers to the polarisation; negative = inhibition;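 note: % of control where 0% means no effect; inhibitors lower the polarisation; unlabelled MLL peptide was the positive control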
# gsp agonist: agonists of gsp mutant (McCune-Albright syndrome); 340,000 compounds, 0.13% hits; Potency, µM (top dose mostly 76.9 µM), without a hit: at the highest dose activation (cAMP increase), hits mostly activators; gsp mutant cells, cAMP HTRF, 30 min; control for the full effect not named in the record; active = well fitted activation curve with a large enough effect; inconclusive = small, poorly fitted or top-dose-only effect, or another doubt; inactive = no such curve, though single readings can be large or run the other way; cell line not stated here;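 note: phosphodiesterase inhibitor Ro 20-1724 added with compounds to block cAMP breakdown; potency is the fitted concentration of half-maximal effect; nearly all actives have a fitted effect of over 60% in size; about a fifth of the inactives were tested at one dose only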
#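 Cells in DMEM/10% FBS with G418 were pretreated with compounds in DMSO plus […] (300 uM stock) for 30 min at 37C. cAMP was measured by HTRF (cAMP-d2 plus anti-cAMP antibody-K) after 30 min at room temperature.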
# * = called active by the depositor; ? = inconclusive; . = no result given; & = joins results of further samples; [ ] = dose if it differs, or a comment.
# Sample of the layout:
SMILES,Sfp inh,TRPML1 inh,gsp antagonist,TRPV1 potentiator,ClpP mod,Menin-MLL FL inh,gsp agonist
CCOc1ccc(/C=N/NC(=O)Cc2csc(Nc3cccc(C(F)(F)F)c3)n2)c(OCC)c1,17%,1,-10%,11,-3.3%,0.0,3%
CCn1nnc(NC(=O)c2sc3ccccc3c2Cl)n1,15%,3,5%,-3,-5.4%,6.1,10%
Cc1[nH][nH]c(=O)c1C=Nc1ccc(C(F)(F)F)cc1,3%,-2,12%,23,-1.2%,0.9,?
N#Cc1ccccc1CN1C(=O)c2ccccc2S1(=O)=O,3%,1,3%,5,-0.5%,0.0,-39%[inhibitor]
CN1CCN(NC(=O)c2cccs2)CC1,15%,25,7%,-3,.,-8.0,9%[15.4 µM]

# Main list, from the start:
SMILES,Sfp inh,TRPML1 inh,gsp antagonist,TRPV1 potentiator,ClpP mod,Menin-MLL FL inh,gsp agonist
CCOc1ccc(/C=N/NC(=O)Cc2csc(Nc3cccc(C(F)(F)F)c3)n2)c(OCC)c1,17%,1,-10%,11,-3.3%,0.0,3%
CCn1nnc(NC(=O)c2sc3ccccc3c2Cl)n1,15%,3,5%,-3,-5.4%,6.1,10%
Cc1[nH][nH]c(=O)c1C=Nc1ccc(C(F)(F)F)cc1,3%,-2,12%,23,-1.2%,0.9,?
N#Cc1ccccc1CN1C(=O)c2ccccc2S1(=O)=O,3%,1,3%,5,-0.5%,0.0,-39%[inhibitor]
CN1CCN(NC(=O)c2cccs2)CC1,15%,25,7%,-3,.,-8.0,9%[15.4 µM]
O=[N+]([O-])c1ccc(OC(F)F)c(/C=N/n2cnnc2)c1,-3%,22,2%,3,.,4.6,6%[15.4 µM]
N#Cc1cccnc1N1CCN(C(=O)c2ccccc2)CC1,10%,13,-1%,-8,3.2%,-4.5,-4%
Cc1cc(=O)oc2cc(OCC(=O)OCC(=O)Nc3ccc4ccccc4c3)ccc12,21%,3,-1%,-7,93%,-9.4,17%
Cc1ccc(C(=O)Cn2nnc(-c3ccccc3)n2)cc1,0%,-3,0%,-14,-11%,-0.2,-5%[15.4 µM]
O=C1CC2(CCN(C(=O)COc3ccc(F)cc3)CC2)Oc2ccccc21,.,-8,-12%,-14,.,.,-4%[15.4 µM]
COc1ccc(CC(=O)N(Cc2ccccc2)C(C)C)cc1,11%,16,1%,?,0.5%,1.2,-18%
CCN1CCN(C(CNS(=O)(=O)c2ccc(OC)cc2)c2cccnc2)CC1 (configuration not stated),17%,2,-7%,2,-4.1%,-2.9,52%
COc1ccc(-c2c3c(=O)n(C)c(=O)n(C)c3cn2NC(C)=O)cc1,14%,26,5%,-7,-4.6%,0.6,3%
O=C(COc1ccc(/C=N/NC(=O)c2ccccc2)cc1)Nc1ccc([N+](=O)[O-])cc1,7%,22,8%,4,1.7%,3.0,?
COc1ccc(OCC(=O)N(C)Cc2ccccc2)cc1,12%,50,3%,0,-3.2%,2.7,4%
OCc1ccccc1O[C@@H]1O[C@H](CO)[C@@H](O)[C@H](O)[C@H]1O,-1%&2%,.,2%,-7,0.4%,-7.1&12,.
Cc1cc(C(=O)COC(=O)c2cccc(S(=O)(=O)N(C)C)c2)c(C)n1CC1CCCO1 (configuration not stated),.,8,-3%,3,1.6%,.,-48%[inhibitor]
Nc1nc(-c2cccs2)c(CC(=O)O)s1,-24%,-3,5%,-33,.,?,?
CCNc1nc(NC(C)C)nc(N(C#N)CC(=O)OC)n1,0%,-5,.,-1,.,0.0,19%[15.4 µM]
COc1ccc2nc(SCC(=O)N3CCCCC3)c(C#N)cc2c1,-12%,8,-12%,4,.,-0.7,-8%[15.4 µM]
Fc1ccccc1C1c2cccn2CCN1C(=S)Nc1cccc(Br)c1 (configuration not stated),-15%,4,5%,18,.,13,-3%[15.4 µM]
O=C(O)c1cc(-c2ccc(-c3c(-c4ccc5c(c4)OCO5)noc3-c3ccsc3)cc2)nc2ccccc12,-7%,0,-19%,9,-15%&-14%,0.9,-11%
O=C(CC(c1ccccc1)c1ccccc1O)N1CCCCC1 (configuration not stated),-1%,-6,5%,-14,-1.5%,1.1,-6%
COc1ccc(CNC(=O)c2ccc(CNc3c(NC4CCCCC4)c(=O)c3=O)cc2)cc1,-6%,15,6%,-3,-1.2%,6.6,19%
O=C(COCc1cc(-c2ccc3c(c2)OCO3)on1)Nc1cccnc1Cl,0%,-15,-8%,3,11%,.,-5%
O=C(CN1CCOCC1)Nc1ccc2c(c1)OCCO2,?,9,-23%,8,0.2%,1.2,56%
CN(C)S(=O)(=O)n1cc(/C=C(\NC(=O)c2ccccc2)C(=O)NCCN2CCOCC2)c2ccccc21,-3%,?,-9%,6,-3.7%,.,-38%[inhibitor]
Cc1ccccc1OCC(O)COc1ccccc1C,.,-4,-9%,.,.,.,33%
Cc1cc2c(cc1S(=O)(=O)NCc1ccccc1)NC(=O)CO2,.,-11,3%,-7,.,.,-1%[15.4 µM]
COc1ccc(CNS(=O)(=O)c2c(C(=O)N3CCCCCC3)c(C)n(C)c2C)cc1,13%,34,1%,5,-1.5%,-0.8,?
CSCCC(NS(=O)(=O)c1ccc(C)cc1)C(=O)Nc1ccc(C)cn1 (configuration not stated),.,17,10%,-6,-7.3%,.,-4%[15.4 µM]
CCn1c(=S)sc2c(=O)n(CC(=O)Nc3cccc(Cl)c3)c(C)nc21,?,27,-28%,-10,-1.9%,2.4,?
COC(=O)c1cc(S(=O)(=O)Nc2ccc(C)c(F)c2)c[nH]1,3%,2,1%,-1,2.3%,3.2,-5%
CN(C)S(=O)(=O)c1cc(NC2CC(=O)N(c3ccc(F)cc3)C2=O)ccc1Cl (configuration not stated),2%,0,4%,27,-0.8%,-2.4,-3%
CCN(CC(=O)Nc1cc(Cl)ccc1C)C(=O)c1ccc(=O)n(Cc2ccccc2)n1,14%,-3,-16%,7,2.1%,2.1,-18%
CC1=NN(c2ccc(C)cc2)C(=O)/C1=C\C=C\c1ccccc1,?,2,11%,3,.,34[activator],-3%[15.4 µM]
COc1ccc(OC)c(S(=O)(=O)NCC(c2ccc(F)cc2)N2CCN(C)CC2)c1 (configuration not stated),.,29,4%,-8,.,.,1%[15.4 µM]
COc1ccc(CNN2CCCCC2C(=O)Nc2ccc(OC)c(OCC(C)C)c2)cc1OC (configuration not stated),-21%,12,-10%,-16,-0.3%,-0.2,?
COCCN1C(=O)C(=O)/C(=C(/O)c2ccc(S(=O)(=O)N3CCOCC3)cc2)C1c1cccc(Cl)c1 (configuration not stated),9%,15,7%,?,.,3.4,-4%[15.4 µM]
CC(=O)c1c(C)[nH]c(C(=O)OCC(=O)N(Cc2ccccc2)C(C)(C)C)c1C,.,41,-14%,-8,?,.,-13%[15.4 µM]
COc1cccc(OC)c1C(=O)NC(=S)N1CCCCC1c1cccnc1 (configuration not stated),-10%,.,-8%,-3,-1.0%,0.9,.
CC(C)c1csc(CN2CCC(n3nccc3NC(=O)Cc3ccccc3)CC2)n1,9%,58,3%,2,1.9%,-1.1,12%[15.4 µM]
CC1C(=O)N2CCCc3cc(NC(=O)COc4ccccc4)cc1c32 (configuration not stated),.,24,7%,2,0.7%,.,0%
CCc1cccc(NC(=O)C2CCCN(S(=O)(=O)c3c(C)[nH]c(=O)[nH]c3=O)C2)c1 (configuration not stated),4%,-14,4%,-1,-2.6%,2.2,15%
O=C(Cn1cc(C(=O)C2CC2)c2ccccc21)Nc1ccc(F)cc1,24%,3,-9%,8,.,-8.4,3%
CC(NC(=O)C(C)N1C(=O)c2ccccc2C1=O)c1ccccc1 (configuration not stated),30%[activator],5,5%,14,-1.3%,2.1,6%[15.4 µM]
O/N=C/c1cc(Cl)ccc1OCc1ccccc1Cl,-6%,17,-14%,25,0.1%,-1.3,3%
Nc1cc(=O)[nH]c(SCC(=O)Nc2ccccc2Sc2ccccc2)n1,20%,9,-3%,2,.,2.9,?
O=C(c1cccs1)N1N=C(c2ccccc2)CC1c1ccccc1O (configuration not stated),-4%,-17,-13%,-5,.,8.1,-1%
CCCCNC(=O)COC(=O)c1ccc(C)c(NC(=O)c2ccco2)c1,9%,-27,.,2,.,-0.4,6%[15.4 µM]
CN(C)c1ccc(C#Cc2ccc3cc(CCO)oc(=O)c3c2)cc1,.,10,13%,2,3.9%,.,29%
CCc1ccc(NC(=O)c2sc3nc4n(c(=O)c3c2C)CCC4)cc1,-4%,3,?,-22,1.0%,.,-1%
CC(Nc1ccc2c(c1)OCCO2)C(=O)N1CCc2ccccc21 (configuration not stated),1%,10,1%,3,.,-1.3,17%
CCNC(=O)Nc1ccc(S(=O)(=O)Nc2cnc(C)nc2C)cc1,-14%,3,8%,-4,.,.,-10%
NS(=O)(=O)c1ccc(CCNC(=O)CSc2nc3ccsc3c(=O)n2CC2CCC(C(=O)O)CC2)cc1 (configuration not stated),8%,3,0%,8,0.9%,-1.3,8%
CC1(C)Cc2cccc(OCC(=O)Nc3cc(C(F)(F)F)ccc3N3CCOCC3)c2O1,1%,4,-11%,-5,-4.0%,5.1,-3%
CNc1nccc(-c2ccc(F)cc2)c1C#N,0%,11,-4%,-4,.,2.7,2%
O=[N+]([O-])c1ccccc1CSc1nnc2ccccn12,-7%,6,9%,4,.,-0.1,27%[15.4 µM]
NC(=O)c1nnn(-c2nonc2N)c1-c1ccc([N+](=O)[O-])cc1,-6%,-3,-1%,-3,-0.8%,-2.5,-76%[inhibitor]
